H5N1 CPE – MDCK cell protection from H5N1 avian flu; inhibition, % at 50 µM; AID 740, 2007; cytopathic effect, luminescence, 72 h; active compounds read high; no value below 0 was filed and about half of the inactive calls have no number; reference of the scale not given here; hit rate 0.07% among 96,000; in the data active means inhibition above about 25%
An asterisk follows results filed as active; i = inactive.

SMILES	H5N1 CPE
OCCOCCNc1ncnc2c1cnn2-c1ccc(Cl)cc1	i
CCOC(=O)C1=C(C)NC(SCc2cc(=O)[nH][nH]2)=C(C#N)C1c1cccs1 (stereo unspecified)	i
CCOC(=O)C1=C(Nc2ccccc2)OCC1=O	i
CCOC(=O)N1CCN(C(=O)C2CCN(S(=O)(=O)c3ccc(Cl)cc3)CC2)CC1	0.3
C=CCOc1ccc(CNC(C)(C)CO)cc1OCC	0.4
CC(C)N1C(=O)/C(=C/c2nc3ccccc3c(=O)n2-c2ccccc2)c2ccccc21	0.1
CCOC(=O)C1CCCN(c2c(Nc3cc(C)cc(C)c3)c(=O)c2=O)C1 (stereo unspecified)	2.2
Cc1cccc(N(C)S(=O)(=O)c2ccc3[nH]c(=O)c(=O)[nH]c3c2)c1	0.8
COc1cc(NS(=O)(=O)c2ccc(NC(=O)C34CC5CC(CC(C5)C3)C4)cc2)ncn1	i
CCOC(=O)c1sc(=S)n(-c2cccc(C(F)(F)F)c2)c1SC	0.1
Oc1c(Cl)cc(Cl)cc1CNc1ccc(Br)cn1	i
CC(C)CCSc1nc2c(c(=O)[nH]c(=O)n2C)n1CCc1ccccc1	0.3
Fc1cnc(N2CCc3ccccc32)nc1N1CCc2ccccc21	0.2
O=C(CCCN1C(=O)c2ccccc2C1=O)Oc1ccc(F)cc1	i
COc1ccc(N2C(=O)CC(N3CC=C(c4ccccc4)CC3)C2=O)cc1 (stereo unspecified)	i
O=C(NCN1CCc2ccccc2C1)c1ccccc1	i
CCOC(=O)c1cccc(NC(=O)CSc2nnc(COc3ccc(Cl)cc3)o2)c1	1.1
Cc1ccc(-c2nnc3n2N=C(c2ccc(Br)cc2)CS3)cc1	1.5
COc1cccc(OCc2nnc(SCC(=O)NCc3ccco3)n2C)c1	i
CC(=O)NC1CCN(C(=O)N2CCCC2)CC1	0.1
COc1ccc(CN2CCCC(C(=O)N3CCCC3)C2)cc1 (stereo unspecified)	0.3
O=S(=O)(c1ccc(F)cc1)N(CCO)CC(O)Cn1c2ccccc2c2ccccc21 (stereo unspecified)	i
COCCn1c(Cc2ccccc2)nnc1SCC(=O)N1CCCCC1C (stereo unspecified)	i
Cc1cc(=O)oc2cc(OC(C)C(=O)Nc3ccc(N4CCOCC4)cc3)ccc12 (stereo unspecified)	0.9
Cc1cc(C(F)(F)F)n2ncc(-c3ccccc3)c2n1	0.7
CC1CN=C(Nc2ccc(N(C)C)cc2)S1 (stereo unspecified)	i
Cc1ccc(CN(c2ccc(C(=O)NCc3ccc4c(c3)OCO4)cc2)S(C)(=O)=O)cc1	0.2
Cc1cc(NC(=O)C2COc3ccccc3O2)no1 (stereo unspecified)	i
CN1C2CCC1CC(OC(=O)c1c[nH]c3ccccc13)C2 (stereo unspecified)	i
COc1ccc(OC)c(NC(=O)c2cnn(-c3ccccc3Cl)c2NC(=O)c2ccco2)c1	i
Cc1cc(-c2ccccc2)nc2[nH]n(-c3ccccc3)c(=O)c12	1.2
CCCc1nnc(SCC(=O)N2CCCCC2)n1CC1CCCO1 (stereo unspecified)	2.6
COc1ccc(CNC(=O)C2CC(c3ccc(F)cc3)=NO2)cc1 (stereo unspecified)	0.3
O=c1[nH]c(=O)n(-c2cccc(Cl)c2)c(O)c1C=NCCN1CCCCC1	0.7
CCCn1c2c(c(O)c(C(=O)Nc3ccc(OC)cc3)c1=O)CCCC2	i
Cc1sc(NC(=O)c2ccc(Br)s2)c(C(N)=O)c1C	0.4
Cc1ccc(S(=O)(=O)N(C)CC(=O)OCc2nnc(-c3ccccc3)o2)cc1	i
CCN(CCCNC(=O)CCNC(=O)Cn1ccc2ccccc2c1=O)c1ccccc1	i
COc1ccc(C2CC2/C(C)=N/OC(=O)c2cccs2)cc1 (stereo unspecified)	i
COC(=O)c1cc(CSc2nc3ccccc3[nH]2)oc1C	0.9

For reference, some entries already given:
SMILES	H5N1 CPE
COc1cccc(OCc2nnc(SCC(=O)NCc3ccco3)n2C)c1	i
CC(=O)NC1CCN(C(=O)N2CCCC2)CC1	0.1
COc1ccc(CN2CCCC(C(=O)N3CCCC3)C2)cc1 (stereo unspecified)	0.3
O=S(=O)(c1ccc(F)cc1)N(CCO)CC(O)Cn1c2ccccc2c2ccccc21 (stereo unspecified)	i
COCCn1c(Cc2ccccc2)nnc1SCC(=O)N1CCCCC1C (stereo unspecified)	i
Cc1cc(=O)oc2cc(OC(C)C(=O)Nc3ccc(N4CCOCC4)cc3)ccc12 (stereo unspecified)	0.9
Cc1cc(C(F)(F)F)n2ncc(-c3ccccc3)c2n1	0.7
CC1CN=C(Nc2ccc(N(C)C)cc2)S1 (stereo unspecified)	i
Cc1ccc(CN(c2ccc(C(=O)NCc3ccc4c(c3)OCO4)cc2)S(C)(=O)=O)cc1	0.2
Cc1cc(NC(=O)C2COc3ccccc3O2)no1 (stereo unspecified)	i
CN1C2CCC1CC(OC(=O)c1c[nH]c3ccccc13)C2 (stereo unspecified)	i
COc1ccc(OC)c(NC(=O)c2cnn(-c3ccccc3Cl)c2NC(=O)c2ccco2)c1	i
Cc1cc(-c2ccccc2)nc2[nH]n(-c3ccccc3)c(=O)c12	1.2
CCCc1nnc(SCC(=O)N2CCCCC2)n1CC1CCCO1 (stereo unspecified)	2.6
COc1ccc(CNC(=O)C2CC(c3ccc(F)cc3)=NO2)cc1 (stereo unspecified)	0.3
O=c1[nH]c(=O)n(-c2cccc(Cl)c2)c(O)c1C=NCCN1CCCCC1	0.7
CCCn1c2c(c(O)c(C(=O)Nc3ccc(OC)cc3)c1=O)CCCC2	i
Cc1sc(NC(=O)c2ccc(Br)s2)c(C(N)=O)c1C	0.4
Cc1ccc(S(=O)(=O)N(C)CC(=O)OCc2nnc(-c3ccccc3)o2)cc1	i
CCN(CCCNC(=O)CCNC(=O)Cn1ccc2ccccc2c1=O)c1ccccc1	i
COc1ccc(C2CC2/C(C)=N/OC(=O)c2cccs2)cc1 (stereo unspecified)	i
COC(=O)c1cc(CSc2nc3ccccc3[nH]2)oc1C	0.9

Continuation.
SMILES	H5N1 CPE
COc1ccc(CNC(=O)c2cc3c(s2)CS(=O)C3)cc1 (stereo unspecified)	0.5
COc1cc2c(cc1OC)C(c1ccc(-c3ccccc3Cl)o1)=NCC2	i
CCOC(=O)c1ccc(Nc2cc(C)nc3ncnn23)cc1	i
CC(=O)Nc1ccc(NS(=O)(=O)C(F)(F)F)cc1	i
CCSc1nnc(NC(=O)C(C)(C)C)s1	0.9
O=C(NC(NC1CCS(=O)(=O)C1)C(Cl)(Cl)Cl)c1ccc(Br)cc1 (stereo unspecified)	2.7
CC1(C)Cc2c(c(N3CCCC3)[nH]c(=S)c2C#N)CO1	i
COc1ccc(Cl)cc1NC(=O)c1cnc2sccn2c1=O	i
Cc1ccc(C)c(OCC(=O)Nc2cc(C)on2)c1	0.1
O=C(c1ccccc1)N1CCN(C2c3cccc4cccc(c34)C2NS(=O)(=O)c2ccccc2)CC1 (stereo unspecified)	i
O=C1c2cccc3c(O)ccc(c23)C(=O)N1Cc1ccccc1	0.6
C/C(=N\Nc1nc(N)cc(Cl)n1)c1cccc([N+](=O)[O-])c1	0.6
CCCCn1nnc(NC(=O)COc2cc(C)ccc2C(C)C)n1	i
CN1C(=O)NC(=O)[C@]2(Cc3ccccc3N3CCN(c4ccccc4)CC32)C1=O (stereo partly specified)	0.4
CC(C)COC(=O)Nc1ccccc1C(=O)N1CCOCC1	0.4
CCOC(=O)C1CCN(C(=O)CN(Cc2ccc(Cl)cc2)S(C)(=O)=O)CC1	i
O=C(Cn1ncc2c3ccccc3n(Cc3ccc(F)cc3)c2c1=O)N1CCN(c2ncccn2)CC1	0.2
COc1ccccc1OCC(=O)Nc1ccc(S(=O)(=O)NC(C)=O)cc1	0.6
CCOC(=O)NC1(C(F)(F)F)C(=O)NC(C)=C1C(=O)OC (stereo unspecified)	1.1
CCOC(=O)C1CCCN(C(=O)c2ccc(CS(=O)(=O)Cc3ccccc3C)o2)C1 (stereo unspecified)	0.4
OC1CCN(c2c3c(nc4cc(-c5ccc(F)cc5)nn24)CCC3)CC1	i
O=c1nc(NC2CCCC2)ccn1Cc1cccc(Br)c1	i
COc1ccc(CCNC(=O)C2CCN(c3ccc(N4CCOCC4)nn3)CC2)c(OC)c1	i
CCOc1cc(S(=O)(=O)Nc2ccccn2)ccc1F	i
O=C(c1ccc(Cl)c(Cl)c1)N1CCCC1	i
COCCCNC(=O)CN1C(=O)CSc2ncccc21	i
CCOC(=O)c1cccc(N/C=C/C(=O)c2ccc(OC)c(OC)c2)c1	i
Cc1ccc(C(=O)NC2CCN(C(=O)N3CCOCC3)CC2)cc1	0.8
O=C(CCn1c(=O)[nH]c2ccsc2c1=O)N(CCc1ccccc1)Cc1ccccc1	i
COc1cc(S(=O)(=O)N2CCCCC2)ccc1NC(=O)c1ccc(F)cc1	0.2
CCOC(=O)N1CCC(NC(=O)Cc2cn(C)c3ccccc23)CC1	i
Cc1ccc(C(=O)NNC(=S)NC(=O)c2ccc(Cl)cc2Cl)cc1	i
CN(CCCNC(=O)C1CCC(=O)N1Cc1ccc(F)cc1)c1ccccc1 (stereo unspecified)	0.9
CCOc1c2ccc(C(=O)NCc3ccco3)cc2nn1CC	0.4
CC(C)n1cc(/C=C2\NC(=O)N(c3cccc(Cl)c3)C2=O)c2ccccc21	i
CCc1c(C)sc(NC(=O)c2cc(C3CC3)on2)c1C#N	i
O=C(Nc1cc(C(=O)N2CCOCC2)ccc1N1CCCC1)c1cccs1	0.3
Cc1ccc(N(C(=O)c2ccccn2)C2(C(=O)NC3CCCC3)CCCCC2)cc1	i
Cc1cc(N2CCCCC2)n2ncc(-c3ccc(Cl)cc3)c2n1	i
O=C(NCCN1CCOCC1)C1CCC(=O)N1Cc1ccc(F)cc1 (stereo unspecified)	i
CC(C)C(NC(=O)OC(C)(C)C)C(=O)N1CCCC1C(=O)NC(Cc1ccccc1)C(N)=O (stereo unspecified)	i
Cc1cc(C)c2c(=O)[nH]n(C3CCOC(C)(C)C3)c2n1 (stereo unspecified)	0.8
COc1ccc(-c2ccnc3nc(N4CCOCC4)nn23)cc1	0.6
CCOC(=O)Cn1cc([N+](=O)[O-])nc1[N+](=O)[O-]	0.1
CCc1nnc(NC(=O)c2cccc(S(=O)(=O)N3CCc4ccccc43)c2)s1	i
Cc1nn(-c2ccccc2)c(C)c1C(=O)OCC(=O)NCc1ccco1	1.3
CCOC(=O)c1c(C)c(C(=O)N2CCCCCC2)c(C)n1C	i
O=C(CSCc1ccccc1)NNC(=S)Nc1cccc(Cl)c1Cl	i
CCOC(=O)c1n[nH]c2ccccc12	i
Cc1ccc(S(=O)(=O)N2CCOCC2)cc1C(=O)NCCCn1ccnc1	1.5
O=c1sc(N2CCN(c3ccccc3F)CC2)nc2ccsc12	0.6
CCOC(=O)N1CCC(NC(=O)Cn2nc(Cc3ccncc3)c3ccccc3c2=O)CC1	0.9
CC(C)C12CN3CCN(CC(C3)C1O)C2 (stereo unspecified)	i
Cn1c(SCc2ccccc2)nnc1C1CCCNC1 (stereo unspecified)	0.3
CCC(Sc1nc2cc3c(cc2c(=O)n1Cc1ccco1)OCO3)C(=O)Nc1cccc(OC)c1 (stereo unspecified)	i
COc1cccc(Nc2c(F)c(F)c(F)c(F)c2C(=O)O)c1	1.0
O=C(Nc1ccn(Cc2ccc(F)cc2)n1)c1ccncc1	0.8
O=S(=O)(/N=C(\Sc1ccc(Cl)cc1)c1ccccc1)c1ccccc1	1.1
CC1CCc2ccccc2N1C(=O)c1cccs1 (stereo unspecified)	2.2
CSc1ccccc1C(=O)NCC1CCCO1 (stereo unspecified)	0.1
Later entries
SMILES	H5N1 CPE
COC(=O)c1cc(OC)c(OC)cc1NC(=O)c1cccnc1	i
O=C(O)c1cc(-c2ccccc2)c(N2CCOCC2)s1	0.5
Cc1ccc(SCCCn2cnc3ccccc3c2=O)cc1	1.7
O=C(N/N=C/c1ccncc1)/C(=C/c1ccccc1)NC(=O)c1ccccc1	0.2
CCCn1c2c(c(O)c(C(=O)Nc3ccccc3)c1=O)CCCC2	i
O=S(=O)(c1ccccc1S(=O)(=O)N1CCCCC1)N1CCCCC1	2.4
COCCNC(=O)c1onc(CSc2cccc(OC)c2)c1C(=O)O	i
Cc1cc(Cl)ccc1NC(=O)NC1CCN(S(=O)(=O)c2ccc(F)cc2)CC1	1.0
COc1ccc(-c2coc3cc4oc(=O)cc(C)c4cc23)cc1F	i
c1ccc2[nH]c(CCNC3CCCCC3)nc2c1	0.8
CCN(CC)c1nc(-c2nn[nH]n2)nc(N(CC)CC)n1	0.3
O=[N+]([O-])c1ccc(N2CCNCC2)c2ncccc12	0.1
CCOC(=O)Nc1ccc2c(c1)nc(CN1CCN(C(C)=O)CC1)n2C	1.0
CCCOc1ccc(C(=O)N2CCCc3ccccc32)cc1	0.7
CC(=O)Nc1ccccc1N(C)S(=O)(=O)c1ccc(C)cc1	i
CCCCCCC(=O)Nc1ccc(C(=O)N2CCCC2)cc1	i
Cc1cc(Br)cc(C)c1NC(=S)NC(=O)CC(C)C	1.5
Cc1ccc(S(=O)(=O)N(C)CC(=O)N2CCN(c3ccccn3)CC2)cc1	i
CC(C)NC(=O)c1ccc(OC2CSC2)cc1	i
Cc1nc2ccc(C(=O)O)cc2[nH]1	1.4
COc1ccc(CN(C)CCc2ccccn2)c(OC)c1OC	i
O=C(Nc1nnc(-c2ccccc2)o1)C1CCCCC1	1.3
CCN1C(=O)CC(N2CCN(c3ccc(C(=O)c4ccncc4)cc3)CC2)C1=O (stereo unspecified)	1.0
O=C(O)C1C2C=CC3(CN(c4cccc(C(F)(F)F)c4)C(=O)C13)O2 (stereo unspecified)	i
CCC1Oc2ccc(C)cc2N(CC(=O)NCC2COc3ccccc3O2)C1=O (stereo unspecified)	2.6
N#Cc1nc(N2CCOCC2)nc(N2CCOCC2)n1	4.4
COc1ccc2oc(=O)cc(C)c2c1	0.9
COc1cccc(CNc2cc(CSc3ccc(Cl)cc3)nc(C)n2)c1	i
COCCNC(=O)CSCc1c(F)cccc1Cl	0.7
FC(F)(F)C12CC(c3ccccc3)=NCCN1CCN2 (stereo unspecified)	i
Cc1ccc(Cc2cnc(NC(=O)c3ccco3)s2)cc1	i
Cc1cnc(C)c(N2CCC(C(=O)NC(C)c3cccs3)CC2)n1 (stereo unspecified)	i
Cc1nn(-c2ccccc2)c(=S)n1-c1ccccc1	0.8
Cc1cc(NCc2ccccc2)nc(N2CCOCC2)n1	0.1
O=C(C1CC1)N(CCN(Cc1ccccc1)C(=O)C1CC1)Cc1ccccc1	1.1
Fc1ccc(F)c(CN2CCN(c3ncccn3)CC2)c1	i

High-throughput results as filed in PubChem.

Only part of the results is shown (hit frequency here may not be typical).
